LT uptake inh: blocks cellular internalization of anthrax lethal toxin. Potency, µM (series often up to 40 µM), for inactives: at the highest dose activity change, negative = inhibition, actives largely listed as inhibitors. Cells, anthrax lethal toxin internalization, FRET ratio (460/530). AID 912. hit rate 0.67% among 70,000; active = well fitted falling ratio curve with the 530 nm signal flat; inconclusive = other ratio curves, or a change in one channel alone; inactive = flat curves in the ratio and both channels; the % refers to the ratio; also: % is scaled to controls: 0 for no effect and ±100 for the full control effect; nearly all actives have a fitted effect of over 50% in size; tested in ME-180 cells; beta-lactamase reporter
Prx2 Sm inh: blocks S. mansoni peroxiredoxin 2 enzymatic activity | S. mansoni Prx2 activity coupled to TGR/GSH (TGR is thioredoxin glutathione reductase), NADPH fluorescence loss, qHTS; some inactives read as strong as hits | Potency, µM | hit rate 0.07% among 65,000 | AID 448; active means full or partial inhibition curve with a strong effect at the top dose; inconclusive means weaker partial or single-point curve; inactive means no accepted curve; also: series up to 57 µM; many of its hits are not listed in these tables
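Activity is read as the drop in NADPH fluorescence (365/450 nm), recorded every 30 sec for 8 min after H2O2 addition. Prx2 is coupled to TGR-driven NADPH oxidation through glutathione, in phosphate buffer pH 7.4.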
An asterisk follows results filed as active; u = inconclusive; x = not tested or not shown. Potency is read from the fitted curve at half-maximal effect.

Second line of a record – LT uptake inh | Prx2 Sm inh
> CCOc1ccc2c(c1)C(C)=CC(C)(C)N2
→ 9.8% | >57
> Cc1cccc(N(C(=O)Cn2nnc3ccccc32)C(C(=O)NCc2ccco2)c2ccncc2)c1 (stereo not given)
→ -2.3% | >57
> COc1cccc2cc(C(=O)NCC3CCCO3)c(=O)oc12 (stereo not given)
→ 2.7% | >57
> Cc1cnc(NC(=O)c2ccc3c(c2)C(=O)N(Cc2ccco2)C3=O)s1
→ u | >57
> CCn1c(COc2ccccc2C)nnc1SCC(=O)Nc1cc(C)on1
→ 3.0% | >57
> COc1ccc(N(CC(=O)N2CCc3ccccc32)S(=O)(=O)c2c(C)noc2C)cc1
→ 18.2% | >57
> Cn1nc(C(=O)N2CCCC2)c2ccccc2c1=O
→ -0.3% | >57
> CCN(CC(=O)Nc1c(C(=O)OC)[nH]c2ccc(Cl)cc12)c1ccc2c(c1)OCO2
→ u | >57
> CCOC(=O)c1cc(OCC(=O)NC(C)C(C)C)cc(C(=O)OCC)c1 (stereo not given)
→ 5.5% | >57
> CC1(C)C(=O)C(c2ccccc2)=C2CN3C(=O)N(CCc4ccccc4)C(=O)C3(Cc3ccccc3)C=C21 (stereo not given)
→ u | >57
> CCOc1ccc2[nH]c(=O)c(CN(CCO)C(=O)c3ccc(F)cc3)cc2c1
→ -2.4% | >57
> CCOC(=O)CCCCC(=O)c1[nH]c(=O)[nH]c1CSc1nc(C)cc(=O)[nH]1
→ 6.2% | x
> COC(=O)C(C)Sc1nnc2n(-c3cccc(C)c3)c(=O)c3c4c(sc3n12)CCCC4 (stereo not given)
→ u | >57
> Cc1c(N(C)C(=O)C23CC4CC(CC(C4)C2)C3)c(=O)n(-c2ccccc2)n1C
→ -0.5% | >57
> O=C(Nc1ccccn1)c1cccnc1
→ 3.3% | >57

Looked up by compound from the list above:
Second line of a record – LT uptake inh | Prx2 Sm inh
> Cc1c(N(C)C(=O)C23CC4CC(CC(C4)C2)C3)c(=O)n(-c2ccccc2)n1C
→ -0.5% | >57
> CCn1c(COc2ccccc2C)nnc1SCC(=O)Nc1cc(C)on1
→ 3.0% | >57

(listing goes on)
Second line of a record – LT uptake inh | Prx2 Sm inh
> CC(=O)NC1=C(OS(=O)(=O)c2ccc(C)cc2)CN(C)C1=O
→ u | >57
> COc1ccc(C2C(C(C)=O)=C(C)N=c3s/c(=C\c4ccc5c(c4)OCO5)c(=O)n32)c(OC)c1 (stereo not given)
→ -27.5% | x
> COC(=O)c1ccc(C(=O)OC)c(NC(=O)CN2CCN(c3ccccc3)CC2)c1
→ 1.7% | >57
> CN(C)C(N)=NCCC[C@H](N)C(=O)O
→ -4.2% | >57
> O=C(OC(C(=O)NC1CCCC1)c1ccccc1F)c1ccco1 (stereo not given)
→ 4.9% | >57
> Cc1cc(NC(=O)CCCOc2ccc(Cl)cc2Cl)no1
→ -7.7% | >57
> COc1ccc2c(c1OC)C(=O)OC2Nc1ccccn1 (stereo not given)
→ -0.3% | x
> CC(C)C(c1nnnn1Cc1ccccc1)N1CCN(Cc2ccco2)CC1 (stereo not given)
→ -0.9% | >57
> Cc1ccccc1-c1nc(CN2CCC(C(=O)O)CC2)c(C)o1
→ -6.7% | >57
> CC(C)=C1C2C=CC1C(C(=O)Nc1cccc(C)c1)C2C(=O)O (stereo not given)
→ 1.2% | >57
> O=C(CNS(=O)(=O)c1ccccc1)N1CCN(c2ccccc2)CC1
→ -12.5% | >57
> CC1(C)CSC(Nc2ccc(F)c(Cl)c2)=N1
→ 2.4% | >57
> N#Cc1c2n(c(=O)[nH]c1=O)CCCCC2
→ -2.2% | >57
> O=S(=O)(c1cccc(C(F)(F)F)c1)N1CCN(c2nnnn2-c2ccccc2)CC1
→ -18.5% | >57
> CN1CCN(c2ncncc2-c2ccccc2C(F)(F)F)CC1
→ 3.1% | >57
> CCN(CC)CC(=O)Nc1cc(C)c2c(=O)oc3ccccc3c2n1
→ u | >57
> O=S(=O)(c1ccc2nc(COc3ccc(Cl)cc3Cl)[nH]c2c1)N1CCOCC1
→ -10.4% | >57

In the list so far, 13 have a carbonyl joined to an NH by a bond outside any ring:
Second line of a record – LT uptake inh | Prx2 Sm inh
> Cc1cccc(N(C(=O)Cn2nnc3ccccc32)C(C(=O)NCc2ccco2)c2ccncc2)c1 (stereo not given)
→ -2.3% | >57
> COc1cccc2cc(C(=O)NCC3CCCO3)c(=O)oc12 (stereo not given)
→ 2.7% | >57
> Cc1cnc(NC(=O)c2ccc3c(c2)C(=O)N(Cc2ccco2)C3=O)s1
→ u | >57
> CCn1c(COc2ccccc2C)nnc1SCC(=O)Nc1cc(C)on1
→ 3.0% | >57
> CCN(CC(=O)Nc1c(C(=O)OC)[nH]c2ccc(Cl)cc12)c1ccc2c(c1)OCO2
→ u | >57
> CCOC(=O)c1cc(OCC(=O)NC(C)C(C)C)cc(C(=O)OCC)c1 (stereo not given)
→ 5.5% | >57
> O=C(Nc1ccccn1)c1cccnc1
→ 3.3% | >57
> CC(=O)NC1=C(OS(=O)(=O)c2ccc(C)cc2)CN(C)C1=O
→ u | >57
> COC(=O)c1ccc(C(=O)OC)c(NC(=O)CN2CCN(c3ccccc3)CC2)c1
→ 1.7% | >57
> O=C(OC(C(=O)NC1CCCC1)c1ccccc1F)c1ccco1 (stereo not given)
→ 4.9% | >57
> Cc1cc(NC(=O)CCCOc2ccc(Cl)cc2Cl)no1
→ -7.7% | >57
> CC(C)=C1C2C=CC1C(C(=O)Nc1cccc(C)c1)C2C(=O)O (stereo not given)
→ 1.2% | >57
> CCN(CC)CC(=O)Nc1cc(C)c2c(=O)oc3ccccc3c2n1
→ u | >57

Only part of the results is shown, so the mix of outcomes need not match the whole.
